# TRPV1 PAM – enhances activation of the human vanilloid receptor TRPV1 | TRPV1-expressing cells, Fluo-8 calcium influx, capsaicin EC20 potentiation; host cell line not named in the record; control for the full effect not named in the record | potentiation, % at 8.33 µM | 0.02% of 320,000 active | AID 540277; active means potentiation above 80%; inconclusive means 30% to 80%; inactive means below 30%; also: 0% is about no effect
# Target sequence (Q8NER1 whole entry, looked up): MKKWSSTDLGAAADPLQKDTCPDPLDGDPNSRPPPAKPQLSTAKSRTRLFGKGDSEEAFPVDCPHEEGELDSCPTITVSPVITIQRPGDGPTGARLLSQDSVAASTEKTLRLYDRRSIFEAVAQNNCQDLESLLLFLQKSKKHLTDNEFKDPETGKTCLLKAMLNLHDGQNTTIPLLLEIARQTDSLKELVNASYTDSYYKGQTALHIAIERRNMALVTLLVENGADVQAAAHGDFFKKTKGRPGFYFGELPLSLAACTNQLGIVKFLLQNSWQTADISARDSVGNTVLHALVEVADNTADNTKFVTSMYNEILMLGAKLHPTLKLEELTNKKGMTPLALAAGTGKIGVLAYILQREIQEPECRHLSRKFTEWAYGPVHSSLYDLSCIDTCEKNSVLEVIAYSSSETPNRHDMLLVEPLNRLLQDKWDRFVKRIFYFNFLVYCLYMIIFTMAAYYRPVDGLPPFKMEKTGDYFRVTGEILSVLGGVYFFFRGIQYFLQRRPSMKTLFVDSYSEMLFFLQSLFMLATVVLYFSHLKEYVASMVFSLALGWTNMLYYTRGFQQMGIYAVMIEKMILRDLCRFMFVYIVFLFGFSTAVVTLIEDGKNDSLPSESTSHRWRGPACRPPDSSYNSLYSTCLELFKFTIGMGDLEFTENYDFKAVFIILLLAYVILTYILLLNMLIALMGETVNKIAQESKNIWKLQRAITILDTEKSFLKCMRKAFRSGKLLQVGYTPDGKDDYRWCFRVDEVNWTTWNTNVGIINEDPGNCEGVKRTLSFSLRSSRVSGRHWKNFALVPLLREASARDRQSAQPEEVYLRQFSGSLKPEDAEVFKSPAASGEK
#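 Cells expressing TRPV1 were dye-loaded with Fluo-8 and read kinetically: 10 s baseline, 3 min after compound (agonist portion), then 2 min after EC20 capsaicin (allosteric enhancer portion). Calcium-bound dye fluorescence at 480/520 nm.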
# D2 potentiator – positive allosteric modulators of human D2 dopamine receptor. DiscoveRx D2 beta-arrestin cells, luminescence, 90 min; 100% = 57 uM dopamine signal. P14416. potentiation, % (concentration not given with the values). 0.23% of 360,000 active. AID 624464; active = potentiation of 50% or more; inconclusive = 30% to 50%; inactive = 30% or less;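 also: compound concentration not given in the record; tested on top of an EC20 dose of dopamine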
#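 PathHunter beta-arrestin assay in DiscoveRx D2 cells. Compounds were added with an EC20 of dopamine (50 nM final) for 90 min at 37 deg C. Luminescence was read 1 h after detection reagent, with 57 uM dopamine as the EC100 control.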
# ClpP mod – qHTS Assay for Activators of ClpP; ATP-dependent Clp protease proteolytic subunit (Bacillus subtilis (strain 168)), P80244; purified B. subtilis ClpP, FRET peptide cleavage, 20 min; Potency, µM (doses to about 57.5 µM), for the others: at the highest dose activity change, negative = active; 1.9% of 340,000 active; AID 651965, 2013; active = well fitted falling curve with a large enough effect; inconclusive = small, poorly fitted or top-dose-only effect; inactive = no such curve, though single readings can be large or run the other way; also: potency is read from the fitted curve at half-maximal effect; the source files actives as falling curves though it sought activators and does not explain the sign; nearly all actives have a fitted effect of over 65% in size; many hits overshoot -100%
# Target sequence (P80244 whole entry, looked up): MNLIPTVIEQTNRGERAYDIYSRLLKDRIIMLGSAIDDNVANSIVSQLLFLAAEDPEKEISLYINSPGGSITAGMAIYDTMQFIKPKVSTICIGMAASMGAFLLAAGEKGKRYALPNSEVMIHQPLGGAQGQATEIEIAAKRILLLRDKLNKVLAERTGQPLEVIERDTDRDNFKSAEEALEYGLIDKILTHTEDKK
#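 ClpP 10 microg/mL final, pH 8 Tris/KCl buffer with BSA, glycerol, Tween-20; compound pinned in; FRET-FV substrate; RT 20 min; Ex320/Em430; ΔFRET vs ADEP 5.8 microM, DMSO, no enzyme.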
# gsp ag – agonists of gsp mutant (McCune-Albright syndrome); Potency, µM (highest dose often 76.9 µM), for the others: at the highest dose activation (cAMP increase), hits mostly activators; 0.13% of 340,000 active; AID 624287; gsp mutant cells, cAMP HTRF, 30 min; control for the full effect not named in the record; active = well fitted activation curve with a large enough effect; inconclusive = small, poorly fitted or top-dose-only effect, or another doubt; inactive = no such curve, though single readings can be large or run the other way; cell line not stated here;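 also: phosphodiesterase inhibitor Ro 20-1724 added with compounds to block cAMP breakdown; potency is read from the fitted curve at half-maximal effect; nearly all actives have a fitted effect of over 60% in size; about a fifth of the inactives were tested at one dose only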
#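 Cells stably selected in G418 were plated at 2000/well, grown 16-24 hr, then given compounds in DMSO with the PDE inhibitor […] (300 uM solution added) for 30 min at 37C; cAMP was read by HTRF.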
# gsp antag – antagonists of gsp mutant (McCune-Albright syndrome); gsp-mutant cells, cAMP HTRF, 30 min; control for the full effect not named in the record; Potency, µM (highest dose often 76.9 µM), for inactives: at the highest dose activity change, negative = inhibition, actives largely listed as inhibitors; 0.4% of 340,000 active; AID 624288; active = falling curve of any shape with a large fitted effect; inconclusive = falling curve, mostly with a smaller effect; inactive = flat or rising curve; cell line not stated here;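 also: intracellular cAMP measured with PDE inhibitor Ro 20-1724 present during compound exposure; potency is read from the fitted curve at half-maximal effect; % is scaled to controls: 0 for no effect and ±100 for the full control effect; nearly all actives have a fitted effect of over 65% in size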
#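 HTRF cAMP measurement after 30 min RT detection following 30 min, 37C compound treatment alongside […] (added as 300 uM solution) in G418-selected cells seeded at 2000/well and grown 16–24 h.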
# Menin MLL FP FL – displaces fluorescein MLL peptide from human menin. AID 1766. FP activity change, % at 61.4 µM. Fluorescence polarization, fluorescein-MLL peptide displacement from menin. 290,000 tested, under 10 active; inconclusive = falling polarisation curve, or a change in total fluorescence; inactive = total fluorescence flat and polarisation flat or rising; no compound was filed as active; the % refers to the polarisation; negative = inhibition;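 also: % of control where 0% means no effect; inhibitors lower the polarisation; unlabelled MLL peptide was the positive control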
# Sfp PPTase inh – Sfp phosphopantetheinyl transferase inhibition. Biochemical Sfp PPTase activity, qHTS. Q9F4F7. 3.5% of 310,000 active. Potency, µM, inactives show max response, negative = inhibition, hits mostly inhibitors; active = well fitted inhibition curve with a large enough effect; inconclusive = small, poorly fitted or top-dose-only effect, or another doubt; inactive = no such curve, though single readings can be large or run the other way;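 also: the enzyme is Sfp with the accession as filed and its product quenches rhodamine fluorescence; potency is read from the fitted curve at half-maximal effect; 0% = enzyme reaction without inhibitor and -100% = no enzyme wells; top concentration of the series not given in the record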
#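 Step 1, compound plus 15 nM Sfp-PPTase, 15 min, room temperature. Step 2, add rhodamine-CoA (5 uM) and BHQ-2-YbbR (12.5 uM). Step 3, read 525/598 nm fluorescence at 0 and 30 min.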
# * = called active by the depositor; ? = inconclusive; . = not tested or not shown; & = joins results of further samples; [ ] = another dose, or the depositor's remark.
SMILES,TRPV1 PAM,D2 potentiator,ClpP mod,gsp ag,gsp antag,Menin MLL FP FL,Sfp PPTase inh
Cc1ccc(N2C(=O)c3n[nH]c(C)c3C2c2ccccn2)cc1 (stereo not given),7.7,1.4,-2.2%,7.3%,-4.2%,2.5,14.4%
COc1ccc(S(=O)(=O)Nc2ccc(O)c(Sc3nc4ccccc4s3)c2)cc1,-4.3,5.6,0.6%&3.1%,-1.6%,-6.6%,5.0,?
COc1ccc(/C=C/C(=O)Nc2ccccc2C(=O)N2CCCC2)cc1,9.7,13.6,-1.2%,11.0%,-0.6%,4.0,13.5%
Cc1ccc(S(=O)(=O)NCCC(=O)NC2CC2)cc1,1.4,-7.3,0.9%,1.3%,-5.7%,.,5.9%
CC(=O)NC1C(OCCOc2ccc(Cl)cc2Cl)OC(COC(C)=O)C(OC(C)=O)C1OC(C)=O (stereo not given),-3.7,5.1,-1.9%,12.5%,-0.5%,2.8,14.9%
COc1ccc(OC)c(NC(=O)Cc2coc3ccc4ccccc4c23)c1,-0.2,-19.0,-9.3%,?,-10.0%,4.5,?
O=C(O)C1CCCN(S(=O)(=O)c2ccc(Br)s2)C1 (stereo not given),6.3,-10.9,-1.0%,11.2%[15.4 µM],-8.4%,-5.3,8.1%
O=C(NCc1ccccc1)C1=C[C@@H](C2CC2)C[C@@H](OCc2ccc(CO)cc2)O1,10.8,-3.6,-0.7%,.,-17.9%,1.4,1.8%
C/C(=N\NC(=O)Cc1ccc(Cl)cc1)c1ccccc1O,2.8,-26.6,.,-39.4%[inhibitor],-5.7%,1.2,10.8%
COc1ccc(NC(=O)c2cc(-c3ccccc3Cl)on2)cc1OC,16.9,-11.5,.,-84.0%[inhibitor],-4.0%,-1.4,-2.7%
O=C(CNC(=O)C12CC3CC(CC(C3)C1)C2)OCc1ccc(F)cc1Cl,-16.9,-0.6,-0.7%,-1.0%,-5.9%,.,.
NCc1ccccc1CS(=O)(=O)N1CCOCC1,.,0.9,-1.3%,27.2%,9.9%,.,.
N#Cc1cccc(CS(=O)(=O)c2ccc(Cl)cc2)c1,5.1,-0.9,-0.2%,?,10.9%,2.4,6.3%
O=C(/C=C/c1cccc([N+](=O)[O-])c1)Nc1cccc(NC(=O)c2ccco2)c1,-14.3,3.7,2.7%,-0.4%,-19.9%,2.8,6.4%
COc1ccc(NC(=S)N2CCN(C(=O)c3ccco3)CC2)c(OC)c1,-9.5,-10.7,-1.2%,-17.6%,-0.2%,-1.5,39.8µM*
CC1=[N+](C)N(c2ccccc2)C(=O)C1N=C/C=C/c1ccccc1 (stereo not given),-2.1,-13.2,1.1%,-6.5%,-4.8%,-0.6,2.7%
COc1cccc(N(C(=O)c2ccco2)C(C(=O)NC2CCCC2)c2cccnc2)c1 (stereo not given),-11.1,6.0,?,13.3%,6.5%,5.5,-22.5%
COc1cc(C(=O)OCC(=O)NC2CCCCC2)cc(OC)c1OC,.,-15.5,-0.3%,-16.1%[15.4 µM],-9.0%,.,.
Cc1ccccc1N=Nc1c(O)[nH]c2ccccc12,.,-8.4,-4.8%,9.9%[15.4 µM],2.1%,.,.
O=C(CNC(=O)c1cccs1)NCC(=O)OCc1ccc(Cl)cc1Cl,1.2,-12.9,-1.6%,1.5%,-8.4%,-0.4,11.3%
COc1cc(/C=C/C(=O)OCC(=O)Nc2c(C)n(C)n(-c3ccccc3)c2=O)cc(OC)c1OC,0.6,-1.3,3.8%,-11.5%,5.6%,.,.
CCC(C)(C)n1nnnc1C(c1cccs1)N1CCc2ccccc21 (stereo not given),15.2,7.1,0.7%,-40.0%[inhibitor],-33.0%,14.1,2.1%
CC(C)[C@H](NC(=O)NCc1ccc(Cl)cc1)C(=O)O,9.0,-7.1,0.7%,3.7%,2.3%,3.5,23.8%
CSc1cccc(N2CC(C(=O)Nc3ccccc3N3CCCC3)CC2=O)c1 (stereo not given),-2.7,-34.9,2.1%,?,-38.6%,.,.
O=C(N/N=C/c1ccc([N+](=O)[O-])s1)c1ccccc1,1.4,-4.8,.,19.7%,0.0%,2.7,?
CCCCCCCCCCCCCCCC[N+](C)(C)CC,1.1,-22.1,0.8%,.,7.4%,-3.8,79.4µM*
Cc1cc(N(C)C)c(C#N)c(NCc2ccccc2)n1,-1.6,-4.2,-0.3%,2.8%,0.3%,-2.0,2.2%
CC(Nc1ccccc1)c1cc(Cl)ccc1O (stereo not given),-3.6,-0.7,-6.7%,21.3%,-3.4%[15.4 µM],-0.7,9.1%
CCC(=O)Nc1cc(C(F)(F)F)ccc1N1CCOCC1,-14.9,1.7,1.2%,-12.9%,19.7%,-0.7,5.8%
Cc1ccccc1OCC(=O)OCC(=O)NCc1ccccc1,-31.3,-3.0,-0.9%,24.7%,2.9%,.,.
O=C(Nc1ccc(Br)cn1)C1CCN(S(=O)(=O)c2cccs2)CC1,-37.4,-1.8,.,-1.7%[15.4 µM],-28.6%,0.0,7.5%
CCOC(=O)N1CCN(CC(=O)Nc2cccc(Br)c2)CC1,4.4,-5.3,?,-79.5%[inhibitor],1.5%,1.5,14.4%
CC(=O)c1ccc(S(=O)(=O)N2CCC(C(=O)Nc3ncc(C)s3)CC2)cc1,.,4.9,-1.3%,-13.9%,-8.4%,.,.
CC(=O)NC(NC(=S)Nc1ccccc1Br)C(Cl)(Cl)Cl (stereo not given),12.2,-3.1,.,-16.3%,9.1%,-1.4,-4.0%
COc1ccc(CN2CCNC(=O)C2CC(=O)N(C)Cc2ccno2)c(F)c1 (stereo not given),-1.3,?,-4.3%,5.1%,11.4%,-6.3,4.5%
COc1ccc(CN2C(=O)C(CC(C)C)Nc3ncnc(N4CCOCC4)c32)cc1 (stereo not given),-11.1,-5.5,0.5%,-17.0%,2.4%,.,.
COc1ccc(CN2C(=O)c3ccc(C(=O)O)cc3C2=O)cc1,?,0.1,-0.4%,-4.6%,?,-6.4,17.9%
C/C(=N\NC(=O)c1ccncc1)c1cc2ccccc2oc1=O,-26.8,-4.0,2.0%,-24.7%,7.7%,3.2,23.1%
Cc1cc(Cl)ccc1N(CC(=O)N(C)Cc1ccccc1)S(C)(=O)=O,.,-3.6,0.2%,-8.2%,.,.,.
S=c1[nH]nc(-c2cccc(Cl)c2)n1CCN1CCCCC1,-0.9,-26.3,-2.5%,12.2%,-16.8%,8.5,-15.5%
O=C(NCCCN1CCCC1=O)c1ccc(Cl)c(NS(=O)(=O)c2ccc(F)cc2)c1,3.4,-18.1,-1.4%,-19.0%,9.6%,2.6,-20.7%
CCOC(=O)N/N=C(\C)c1ccccc1OC(F)F,-2.7,7.3,-0.5%,-4.8%,20.2%,0.8,6.9%
Cn1cnc2c1c(=O)n(Cc1ccccc1)c(=O)n2C,-11.1,-12.3,1.0%,?,12.7%,-0.3,8.0%
CCC1CCCCN1CCCNC(=O)CN1C(=O)COc2ccc(S(=O)(=O)N3CCOCC3)cc21 (stereo not given),8.6,-6.6,-0.2%,16.5%,11.0%,.,24.2%
Cc1ccc(OCCNC(=O)c2ccccc2SCC(=O)N2CCCC2)cc1,5.6,-15.8,0.9%,1.9%,-2.1%,.,.
CCNC(=O)CN1C(=O)NC(Cc2ccccc2)(Cc2ccccc2)C1=O,12.3,-17.1,-2.2%,-37.4%[15.4 µM],4.4%,-1.5,19.1%
O=C(/C=C/c1ccc(S(=O)(=O)NCc2ccco2)cc1)NCc1cccc(Cl)c1,15.0,-14.4,-2.6%,-0.1%,-2.9%,3.3,9.5%
Cc1cccc(Nc2ncccc2C(=O)O)c1C,5.5,-2.3,1.8%,.,-16.5%,1.7&-0.2,19.0%&14.4%
Cc1noc(C)c1C(=O)Nc1sc(C)c(C)c1C#N,-14.6,-1.0,-4.7%,-55.8%[inhibitor],-26.9%,?,?
COC(=O)C1=C(C)N(Cc2ccccc2)C(=NCCc2c[nH]c3ccccc23)N[C@H]1c1cccc(F)c1,.,-41.6,0.3%,.,6.8%,.,.

# Carrying on.
SMILES,TRPV1 PAM,D2 potentiator,ClpP mod,gsp ag,gsp antag,Menin MLL FP FL,Sfp PPTase inh
O=C(Nc1nc2ccccc2s1)c1cnccn1,-6.9,2.2,0.7%,-0.3%,2.1%,1.4,-25.3%
COc1cc(NC(=O)c2cc(-c3cccc(O)c3)on2)cc(OC)c1OC,.,5.0,0.7%,-8.7%,-0.6%,-0.3,16.6%
CCOc1ccc(C(=O)NCC(=O)N2CC=C(c3ccccc3)CC2)cc1OCC,-4.5,-27.8,-2.8%,-7.0%,-22.0%,.,.
CCOC(=O)[C@@H]1[C@H]2COc3ccccc3[C@@H]2N2C(=O)N(c3ccc(C)cc3)C(=O)[C@@]12C,.,-6.1,-1.5%,8.7%,6.6%,.,.
COc1ccc(CCC(=O)Nc2cc([N+](=O)[O-])ccc2OC)cc1,8.6,-32.8,-2.9%,7.3%,-2.6%,1.2,-2.7%
CC(=O)c1c(C(C)=O)c(C)n(-c2cccc3cccnc23)c1C,-1.4,-2.5,0.5%,4.1%,-7.2%,-0.1,2.7%
O=C1c2ccncc2C(=O)N1C1CCCCC1,-8.7,18.9,-4.6%,-1.5%,8.2%,3.1,11.8%
COC(=O)C1=C(C)Nc2ncnn2C1c1ccco1 (stereo not given),-15.1,-19.9,-1.1%,-0.9%,10.7%,1.5,13.0%
COc1cc(OC)cc(-c2cc3ccccc3c(=O)o2)c1,.,9.5,28.2µM*,.,-5.8%,.,.
N#C/C(=C(/O)COC(=O)COc1ccc(Cl)cc1)c1nc2ccccc2[nH]1,11.9,-0.7,0.8%,-3.0%,6.9%,17.6,-21.5%
O=C1NC2(CCC3(CC2)OCCO3)NN1c1ccccc1,3.1,9.2,.,-4.7%,4.6%,-0.2,18.6%
CC(C)CC(c1nnnn1C(C)C)N1CCN(C(=O)c2ccco2)CC1 (stereo not given),6.3,2.1,.,24.6%[15.4 µM],3.3%,.,.
Cc1cc(C(=O)Nc2cc(S(C)(=O)=O)ccc2Cl)no1,-7.5,-9.7,.,7.3%[15.4 µM],11.1%,.,.
Cc1c(C(=O)NN)sc(-c2ccccc2)c1C#N,9.2,-4.8,.,-9.1%[15.4 µM],-2.9%,-3.0,12.2%
